# Compound activity from PubChem.
# PKM2 act = qHTS Assay for Activators of Human Muscle isoform 2 Pyruvate Kinase. Pyruvate kinase PKM (Homo sapiens), P14618. Potency, µM (highest dose often 57.5 µM), for the others: top-dose activation, most hits filed as activators. AID 1631, 2009. actives 0.34% (n = 260,000). purified PKM2, Kinase-Glo ATP luminescence, activation; response scale: 0% is enzyme alone, no compound; also: potency is read from the fitted curve at half-maximal effect; % is scaled to controls: 0 for no effect and ±100 for the full control effect; nearly all actives have a fitted effect of over 55% in size
#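 ATP formation by purified human PK-M2, quantified via coupled luciferase luminescence after 1 h at room temperature with 0.1 mM ADP and 0.5 mM PEP final.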
# Gal4-VP16 FLuc = VP16 counterscreen qHTS for inhibitors of ROR gamma transcriptional activity; Drosophila S2 Gal4-VP16 UAS-luciferase, luminescence, 20 h; Potency, µM (highest dose often 53.6 µM), for the others: top-dose activity, negative = inhibition, hits mostly inhibitors; actives 3.5% (n = 310,000); AID 2546, 2010;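 also: Gal4-VP16 expression switched on by copper sulfate through the metallothionein promoter; potency is read from the fitted curve at half-maximal effect; % is scaled to controls: 0 for no effect and ±100 for the full control effect; nearly all actives have a fitted effect of over 50% in size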
# KCNH2 3.1 inh = qHTS for Inhibitors of KCHN2 3.1: Mutant qHTS. activity change, % (tested at about 1.8 µM). AID 720553, 2013. Potassium voltage-gated channel subfamily H member 2, brain isoform KCNH2 3.1 (human). actives 0.95% (n = 340,000). U2OS KCNH2 3.1, thallium flux FluxOr; stronger effect = lower value;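 active = maximum activity change below -70%; inconclusive = maximum activity change from -70% to -50%; inactive = maximum activity change above -50%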;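 also: thallium influx rate constant from kinetic fluorescence after stimulation buffer; % is scaled to controls: 0 for no effect and ±100 for the full control effect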
#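 Kinetic fluorescence (2 min after stimulation buffer) measures Tl+ influx through KCNH2 3.1 expressed by viral transduction in U2OS cells; the rate constant is normalized against DMSO controls serving as positive and negative references.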
# Mito fusion act = qHTS Assay for Small Molecule Inhibitors of Mitochondrial Division or Activators of Mitochondrial Fusion | actives 0.23% (n = 320,000) | S. cerevisiae fusion-defective mutant growth rescue, CellTiterGlo 48 h | Potency, µM (top dose mostly 46.1 µM), for the others: top-dose growth rescue (activation), hits mostly activators;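 also: potency is read from the fitted curve at half-maximal effect; % of control where 0% means no effect; nearly all actives have a fitted effect of over 45% in size; temperature-sensitive fusion mutants such as fzo1-1 at 37 °C on non-fermentable ethanol glycerol medium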
#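 Luminescent cell viability in 1536-well qHTS format served as the measure of rescued growth in ts fusion-mutant S. cerevisiae cultured on non-fermentable YPEG for 48 hours at 37C.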
# RORgamma inh = qHTS for inhibitors of ROR gamma transcriptional activity; Drosophila S2 Gal4-RORgamma UAS-luciferase reporter, 20 h; Potency, µM (highest dose often 53.6 µM), for inactives: top-dose activity change, negative = inhibition, usual class: inhibitors; Nuclear receptor ROR-gamma (Mus musculus), P51450; actives 5.4% (n = 310,000); also: potency is read from the fitted curve at half-maximal effect; % is scaled to controls: 0 for no effect and ±100 for the full control effect; nearly all actives have a fitted effect of over 60% in size
#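 Stable Schneider cell line, Gal4 DNA-binding domain fused to ROR gamma, UAS-luciferase. Cmpd 1 hr RT → CuSO4 700 uM final → 20 hr RT → luciferase reagent 10 min → luminescence.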
# NPC1 prom act = qHTS Assay for NPC1 Promoter Activators; actives 2.4% (n = 320,000); Potency, µM (series often up to 9.22 µM), without a hit: top-dose activation, most hits filed as activators; Huh7 NPC1 promoter luciferase reporter, 24 h;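 also: potency is read from the fitted curve at half-maximal effect; % of control where 0% means no effect; nearly all actives have a fitted effect of over 60% in size; reporter is driven by a mutant NPC1 promoter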
#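 Stable NPC1-promoter luciferase Huh7 line; cpd (DMSO) 24 h, 37 °C, 5% CO2; Amplite luciferase reagent 10 min RT; luminescence readout. qHTS format.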
# MBNL1-CUG inh = qHTS Assay for Inhibitors of MBNL1-poly(CUG) RNA binding; Muscleblind-like protein 1 (Homo sapiens), Q9NR56; TR-FRET MBNL1-His/biotin-(CUG)12 binding, 665/545 ratio; Potency, µM (series often up to 57.5 µM), inactives show at the top dose activity change, negative = inhibition, actives largely listed as inhibitors; actives 0.036% (n = 280,000); AID 2675, 2010; active = well fitted inhibition curve with a large enough effect in the signal ratio, with a control signal flat, not every such curve was filed as active; inconclusive = small, poorly fitted or top-dose-only effect, or effect the other way, or a change in a side signal; inactive = no such curve, though single readings can be large or run the other way; the % refers to the signal ratio; also: potency is read from the fitted curve at half-maximal effect; % is scaled to controls: 0 for no effect and ±100 for the full control effect
# Target sequence (Q9NR56 whole entry, looked up): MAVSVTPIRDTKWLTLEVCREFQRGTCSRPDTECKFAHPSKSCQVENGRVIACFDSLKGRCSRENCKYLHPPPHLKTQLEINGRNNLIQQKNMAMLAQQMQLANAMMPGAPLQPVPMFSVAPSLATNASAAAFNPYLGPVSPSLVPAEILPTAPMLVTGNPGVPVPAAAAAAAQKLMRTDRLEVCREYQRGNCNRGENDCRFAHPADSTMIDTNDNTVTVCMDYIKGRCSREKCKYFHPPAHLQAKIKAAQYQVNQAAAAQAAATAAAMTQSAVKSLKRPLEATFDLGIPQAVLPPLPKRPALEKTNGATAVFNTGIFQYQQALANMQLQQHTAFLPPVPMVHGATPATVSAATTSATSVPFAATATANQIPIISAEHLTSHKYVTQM
#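 His-tagged MBNL1 binding to biotinylated (CUG)12 RNA was measured by TR-FRET using terbium anti-His antibody (0.055 ng/ul final) and streptavidin-XL665 (5 nM final). Compounds were titrated 92 nM to 58 uM; 60 min at room temperature.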
# Rab9 promoter act = qHTS Assay for Rab9 Promoter Activators | Huh7 Rab9 promoter-luciferase reporter, luminescence, 24 h | Potency, µM (series often up to 9.22 µM), for inactives: at the top dose activation, negative = inhibition, hits mostly activators | AID 485297, 2010 | actives 2.8% (n = 320,000); also: potency is read from the fitted curve at half-maximal effect; % of control where 0% means no effect; nearly all actives have a fitted effect of over 60% in size
#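 Measured in stably transfected Huh7 cells bearing a Rab9 promoter–luciferase construct: 24 h compound treatment at 37 °C, followed by luminescence detection.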
# ELG1 repair inh = qHTS screen for small molecules that inhibit ELG1-dependent DNA repair in human embryonic kidney (HEK293T) cells expressing luciferase-tagged ELG1; Potency, µM (doses to about 46.1 µM), inactives show at the highest dose activity change, negative = inhibition, usual class: inhibitors; actives 2.3% (n = 330,000); AID 504467, 2011; HEK293T ELG1-luciferase reporter, luminescence, 16 h; DNA damage induced by 5-fluorouridine; also: potency is read from the fitted curve at half-maximal effect; % is scaled to controls: 0 for no effect and ±100 for the full control effect; nearly all actives have a fitted effect of over 55% in size
#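 DMSO vehicle served as the neutral condition. Each well held 2,000 cells given 5-fluorouridine plus compound; after 16 hr at 37 °C/5% CO2, ONE-Glo was added and luciferase measured 30 min later.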
# FLuc counter = qHTS profiling assay for firefly luciferase inhibitor/activator using purifed enzyme and Km concentrations of substrates (counterscreen for miR-21 project); purified FLuc, Km substrates, luminescence inhibition; Potency, µM (series often up to 57.5 µM), for inactives: at the highest dose activity change, negative = inhibition, usual class: inhibitors; actives 6.9% (n = 360,000); AID 588342, 2011;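 also: potency is read from the fitted curve at half-maximal effect; plate controls were vehicle for no effect and reference inhibitor for full effect; nearly all actives have a fitted effect of over 55% in size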
# Target sequence (P08659 whole entry, looked up): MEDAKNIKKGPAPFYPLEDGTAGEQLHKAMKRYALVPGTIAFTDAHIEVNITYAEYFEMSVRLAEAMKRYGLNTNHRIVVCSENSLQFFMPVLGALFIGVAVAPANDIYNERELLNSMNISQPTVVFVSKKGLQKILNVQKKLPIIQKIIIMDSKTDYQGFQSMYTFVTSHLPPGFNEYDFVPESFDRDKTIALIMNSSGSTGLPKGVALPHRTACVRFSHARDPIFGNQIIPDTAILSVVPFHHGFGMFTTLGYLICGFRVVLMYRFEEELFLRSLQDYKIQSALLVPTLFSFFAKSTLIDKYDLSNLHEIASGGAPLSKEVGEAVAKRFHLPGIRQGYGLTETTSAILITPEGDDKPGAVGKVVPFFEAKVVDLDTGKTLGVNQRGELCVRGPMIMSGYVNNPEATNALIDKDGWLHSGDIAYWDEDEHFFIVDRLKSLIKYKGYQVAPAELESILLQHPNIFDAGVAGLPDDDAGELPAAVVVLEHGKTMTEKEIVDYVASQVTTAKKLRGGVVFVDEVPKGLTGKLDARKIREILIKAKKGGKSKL
#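 Biochemical qHTS of compounds, final roughly 60 µM downward over six points, against 10 nM purified firefly luciferase using Km concentrations of substrates (10 uM D-luciferin, 10 uM ATP) in Tris acetate pH 7.5 buffer; luminescence output.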
# * = called active by the depositor; ? = inconclusive; . = not tested or not shown; [ ] = another dose, or the depositor's remark. Unless noted, calls follow the shape of the dose curve; as a rule, active = well fitted curve in the direction sought with a large enough effect; inconclusive = small, poorly fitted or top-dose-only effect, or another doubt; inactive = no such curve, though single readings can be large; an effect the other way counts as inactive or inconclusive. A portion of the library (hit frequency here may not be typical).
# Assay codes – A = PKM2 act; B = Gal4-VP16 FLuc; C = KCNH2 3.1 inh; D = Mito fusion act; E = RORgamma inh; F = NPC1 prom act; G = MBNL1-CUG inh; H = Rab9 promoter act; I = ELG1 repair inh; J = FLuc counter
molecule: C/C(=N/NC(=O)c1ccc2c(c1)OCO2)c1ccc(NC(=O)C(F)(F)F)cc1
  A = 1.1% | B = -3.8% | C = 12.6 | D = 0.3% | E = -44.7% | F = ? | G = -16.9% | H = ? | I = ? | J = 0.9%

molecule: Fc1ccc(-c2cc3nc(-c4ccccc4)cc(N4CCN(CCN5CCOCC5)CC4)n3n2)cc1
  A = -1.7% | B = -14.8% | C = -10.0 | D = ? | E = -27.0% | F = -0.9% | G = 15.1% | H = -12.0% | I = ? | J = 2.4%

molecule: Cc1ccccc1OCC(O)CN1CCN(CC(O)COc2ccccc2C)C(C)C1 (stereo unspecified)
  A = . | B = -4.6% | C = ? | D = -24.4% | E = -1.8% | F = -3.1% | G = -1.6% | H = -2.9%[1.84 µM] | I = -16.0% | J = 0.6%

molecule: COc1cccc(OCc2cc(/C=N/NC(=O)c3ccn[nH]3)ccc2OC)c1
  A = 2.3% | B = 0.1% | C = 5.2 | D = 1.7% | E = 22.8% | F = 20.0% | G = -1.7% | H = 13.3% | I = 6.7% | J = 15.1µM*

molecule: CCN(CC)CCCn1c(=S)[nH]c2ncccc2c1=O
  A = -4.4% | B = -3.1% | C = -3.1 | D = 1.5% | E = -7.2% | F = 0.2% | G = -4.3% | H = 3.6% | I = ? | J = 0.7%

molecule: O=C(O)c1cc(-c2ccccc2Cl)n[nH]1
  A = 2.5% | B = 0.1% | C = 7.0 | D = 4.2% | E = 4.7% | F = -1.3% | G = -4.6% | H = 0.8% | I = 0.0% | J = -11.6%

molecule: CC(C)CCNC(=O)[C@@H](NC(=O)c1c(F)cccc1F)C(C)C
  A = -1.2% | B = 10.5% | C = 17.7 | D = 0.0% | E = 1.0% | F = 0.2% | G = 1.8% | H = -2.2% | I = -3.4% | J = -0.5%

molecule: COc1ccc(CN2CCC(CO)(Cc3ccccc3)CC2)cc1Cn1cccn1
  A = 2.0% | B = ? | C = -22.3 | D = -3.9% | E = ? | F = -15.9% | G = -6.1% | H = -3.0% | I = 13.4% | J = -1.6%

molecule: COC(=O)Oc1ccc(/C=N/NC(=O)CSCc2ccccc2Br)cc1OC
  A = 8.1% | B = 12.6µM* | C = 3.1 | D = -7.3% | E = ? | F = -1.8% | G = 1.6% | H = -4.5% | I = ? | J = -1.5%

molecule: O=C(CSc1ncnc2c1oc1ccccc12)c1cccs1
  A = 5.5% | B = 2.5% | C = -14.1 | D = 1.9% | E = -23.1% | F = 2.82µM* | G = ? | H = 3.98µM* | I = ? | J = ?

molecule: CC(=O)Nc1ccc(C(=O)Nc2nc(-c3cc(C)n(Cc4ccccc4)c3C)cs2)cc1
  A = -7.7% | B = 3.6% | C = 4.0 | D = 2.9% | E = 3.3%[10 µM] | F = -2.0% | G = . | H = -1.9% | I = ? | J = -9.5%

molecule: CCOC(=O)c1cc(C#N)c(N2CCN(C)CC2)nc1-c1ccccc1
  A = 0.8% | B = -5.1% | C = -34.7 | D = -2.0% | E = -5.7% | F = 5.1% | G = -14.4% | H = -9.1% | I = ? | J = -2.5%

molecule: CCCCOc1ccccc1-c1cc(C(=O)O)[nH]n1
  A = 2.6% | B = 0.4% | C = 1.3 | D = -6.8% | E = 1.9% | F = -5.4% | G = -4.4% | H = -3.6% | I = 0.3% | J = -0.7%

molecule: CC(C)(C)c1ccc(C(=O)OCC(=O)Nc2sc3c(c2C#N)CCC3)cc1
  A = -19.5% | B = -4.6% | C = -12.8 | D = 0.4% | E = -15.2% | F = 0.1% | G = 0.9% | H = 0.5% | I = ? | J = -2.8%

molecule: CCCCCn1c(=S)[nH]c2ncccc2c1=O
  A = 5.4% | B = 2.82µM* | C = 7.8 | D = -9.1% | E = 1.12µM* | F = -4.8% | G = -7.6% | H = 3.0% | I = ? | J = 0.7%

# Some of these compounds in order of their number in MBNL1-CUG inh, low to high.
structure	PKM2 act	RORgamma inh	NPC1 prom act	MBNL1-CUG inh	Rab9 promoter act
CCCCCn1c(=S)[nH]c2ncccc2c1=O	5.4%	1.12µM*	-4.8%	-7.6%	3.0%
COc1cccc(OCc2cc(/C=N/NC(=O)c3ccn[nH]3)ccc2OC)c1	2.3%	22.8%	20.0%	-1.7%	13.3%
COC(=O)Oc1ccc(/C=N/NC(=O)CSCc2ccccc2Br)cc1OC	8.1%	?	-1.8%	1.6%	-4.5%

# One compound at a time (already shown). Order of screens: PKM2 act, Gal4-VP16 FLuc, KCNH2 3.1 inh, Mito fusion act, RORgamma inh, NPC1 prom act, MBNL1-CUG inh, Rab9 promoter act, ELG1 repair inh, FLuc counter
# `O=C(O)c1cc(-c2ccccc2Cl)n[nH]1` reads 2.5%, 0.1%, 7.0, 4.2%, 4.7%, -1.3%, -4.6%, 0.8%, 0.0%, -11.6%
# `COC(=O)Oc1ccc(/C=N/NC(=O)CSCc2ccccc2Br)cc1OC` reads 8.1%, 12.6µM*, 3.1, -7.3%, ?, -1.8%, 1.6%, -4.5%, ?, -1.5%
# `Cc1ccccc1OCC(O)CN1CCN(CC(O)COc2ccccc2C)C(C)C1` (stereo unspecified) reads ., -4.6%, ?, -24.4%, -1.8%, -3.1%, -1.6%, -2.9%[1.84 µM], -16.0%, 0.6%
# `O=C(CSc1ncnc2c1oc1ccccc12)c1cccs1` reads 5.5%, 2.5%, -14.1, 1.9%, -23.1%, 2.82µM*, ?, 3.98µM*, ?, ?
